ID4 binder = binds human ID4 protein on microarray. P47928. small molecule microarray, Flag-ID4 binding, fluorescence F/B. calls only. actives 1.2% (n = 31,000). AID 624137;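 active = spot signal over background at p below 0.07 in all four prints; compounds were printed on slides so no solution concentration is given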;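 also: a binder raises fluorescence above local background on the spot; about 2 pmol printed per array spot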
Target sequence (P47928 whole entry, looked up): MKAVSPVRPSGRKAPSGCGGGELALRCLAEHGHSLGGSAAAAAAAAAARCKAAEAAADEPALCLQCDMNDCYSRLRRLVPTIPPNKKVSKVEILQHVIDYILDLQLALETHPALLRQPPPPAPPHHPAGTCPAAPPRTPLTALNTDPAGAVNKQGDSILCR
c-Myc SMM = binders of human c-Myc; small molecule microarray, His-c-Myc binding, anti-His fluorescence; calls only; actives 1.5% (n = 17,000); AID 624141; P01106;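 active = spot fluorescence over background with P-value below 7% in all four replicate spots, showing protein binding; compounds were printed on slides so no solution concentration is given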;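 also: score is binary with 100 for all four spots passing and 0 otherwise; about 2 pmol printed per array spot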
Target sequence (P01106 whole entry, looked up): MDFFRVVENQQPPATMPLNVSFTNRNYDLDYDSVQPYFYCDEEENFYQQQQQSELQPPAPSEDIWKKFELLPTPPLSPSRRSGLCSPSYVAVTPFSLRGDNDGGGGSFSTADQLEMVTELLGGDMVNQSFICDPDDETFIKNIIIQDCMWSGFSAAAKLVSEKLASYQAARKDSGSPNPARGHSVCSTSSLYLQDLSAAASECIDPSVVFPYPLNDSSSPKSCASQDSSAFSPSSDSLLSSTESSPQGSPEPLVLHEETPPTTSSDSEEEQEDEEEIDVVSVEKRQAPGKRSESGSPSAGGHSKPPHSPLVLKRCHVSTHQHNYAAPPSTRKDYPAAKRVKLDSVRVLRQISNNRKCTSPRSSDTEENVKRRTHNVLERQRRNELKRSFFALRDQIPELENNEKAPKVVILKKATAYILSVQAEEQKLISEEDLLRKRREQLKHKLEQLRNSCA
STAT3 binder = STAT3 (human) binding; Small molecule microarray, His-STAT3 binding, anti-His fluorescence; actives 0.2% (n = 17,000); calls only; P40763;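 active = compounds whose four printed spots each show fluorescence over background unusually high for their array block, chance value under 7%; compounds were printed on slides so no solution concentration is given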;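 also: about 2 pmol printed per array spot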
p53 mut binder = binders of human mutant p53. small molecule microarray binding, anti-GST fluorescence. calls only. actives 0.4% (n = 17,000). AID 624136;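 active = compounds whose four printed spots each glow above background more than chance allows, each with a p-value under 7%; compounds were printed on slides so no solution concentration is given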;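 also: about 2 pmol printed per array spot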
Calls only; i = inactive; . = not tested or not shown; + = active, no number. Random draw from the library. About 3.7% of those tested had a hit in this group.

SMILES	ID4 binder	c-Myc SMM	STAT3 binder	p53 mut binder
O=c1c(OC2OC(CO)C(O)C(O)C2OC2OC(CO)C(O)C(O)C2OC2OC(CO)C(O)C(O)C2O)c(-c2ccc(O)c(O)c2)oc2cc(O)cc(O)c12 (configuration not stated)	.	i	i	i
Cc1noc(C)c1NC(=O)N(C)C[C@H]1Oc2c(NC(=O)C3CCOCC3)cccc2C(=O)N([C@@H](C)CO)C[C@H]1C	i	i	i	i
C[C@H]1CN([C@@H](C)CO)C(=O)c2cccc(NC(=O)C3CCOCC3)c2O[C@H]1CN(C)Cc1ccccc1	i	i	i	i
Cc1nc(S(=O)(=O)N[C@@H]2CCN(Cc3cccc(OCCO)c3)C2)cn1C	i	i	i	i
COc1ccc(S(=O)(=O)Nc2cccc3c2O[C@@H](CN(C)S(=O)(=O)c2ccc(OC)cc2)[C@@H](C)CN([C@H](C)CO)C3=O)cc1	.	i	i	i
C[C@H](CO)N1C[C@H](C)[C@@H](CN(C)C(=O)Nc2ccccc2)Oc2c(NC(=O)NC3CCCCC3)cccc2C1=O	i	i	i	i
C[C@@H]1CCCCO[C@@H](CN(C)Cc2ccc(C(=O)O)cc2)[C@@H](C)CN([C@H](C)CO)C(=O)c2cc(NS(=O)(=O)c3cccs3)ccc2O1	.	i	i	i
CC(C)(C)c1ccc(N2C(=O)CS(=O)(=O)C2c2ccccc2)cc1 (configuration not stated)	i	i	i	i
CC(C)NC(=O)Nc1ccc2c(c1)C(=O)N([C@H](C)CO)C[C@@H](C)[C@@H](CN(C)Cc1ccc(C(=O)O)cc1)OCCCC[C@H](C)O2	i	i	i	i
CCCOc1ccc(C2C(C(=O)Nc3ccccc3OC)=C(C)Nc3ncnn32)cc1OC (configuration not stated)	i	i	i	i
Cn1c(SCc2ccon2)nc2ccccc2c1=O	i	i	i	i
C=C1[C@@H](C2=CC(=O)OC2)CC[C@@]2(O)[C@@H]1CC1[C@H]2CC[C@@H]2C[C@@H](O[C@H]3O[C@@H](C)[C@@H](O[C@@H]4O[C@H](CO[C@@H]5O[C@H](CO)[C@@H](O)[C@H](O)[C@H]5O)[C@@H](O)[C@H](O)[C@H]4O)[C@H](OC)[C@H]3O)CC[C@]12C (some centres not stated)	i	i	i	i
C[C@@H]1CN([C@@H](C)CO)C(=O)Cc2cc(N(C)C)ccc2O[C@@H]1CN(C)Cc1ccc(C(=O)O)cc1	i	i	i	i
CC(=O)Nc1ccc(S(=O)(=O)NCc2ccc3[nH]c4c(c3c2)CCCC4)cc1	i	i	i	i
CO[C@H]1C[C@@H]2CC[C@@H](C)[C@@](O)(O2)C(=O)C(=O)N2CCCC[C@H]2C(=O)O[C@H](C(C)CC2CC[C@@H](O)[C@H](OC)C2)CC(=O)[C@H](C)/C=C(\C)[C@@H](O)[C@@H](OC)C(=O)[C@H](C)C[C@H](C)/C=C/C=C/C=C\1C (some centres not stated)	.	i	i	i
C[C@@H]1CN([C@H](C)CO)C(=O)Cc2cc(NC(=O)Cc3cn(C)c4ccccc34)ccc2O[C@@H]1CN(C)S(=O)(=O)c1cn(C)cn1	i	i	i	i
C[C@H]1CN([C@@H](C)CO)C(=O)c2cccc(NS(=O)(=O)c3cn(C)cn3)c2O[C@@H]1CN(C)Cc1ccc(Cl)c(Cl)c1	i	i	i	i
C[C@H](CO)N1C[C@H](C)[C@@H](CN(C)C(=O)c2ccccc2)OCc2cn(nn2)CCCC1=O	i	i	i	i
C=C(C)[C@H]1C[C@]2(C)[C@@H](C)C[C@H](O)C[C@H]2[C@H](OC(=O)C=C(C)C)[C@@H]1O	.	i	i	i
C[C@H](CO)N1C[C@H](C)[C@H](CN(C)Cc2ccc(C(=O)O)cc2)Oc2c(NC(=O)c3ccncc3)cccc2C1=O	i	i	i	i
CNC[C@@H]1Oc2ccc(NC(=O)c3ccncc3)cc2CC(=O)N([C@@H](C)CO)C[C@@H]1C	i	i	i	i
CCOc1ccc2ccccc2c1C(=O)NCc1cccnc1	i	i	i	i
COc1cccc(NC(=O)CSc2nc(C)c(C)c(C)c2C#N)c1	i	i	i	i
COc1ccc(Cn2c(-c3ccc(OC)c(O)c3)nc3ccccc32)cc1O	i	i	i	i
Cc1cc(C)c(OCC(=O)Nc2ccc(C)cc2[N+](=O)[O-])c(Cl)c1	i	i	i	i
C[C@@H]1CN([C@@H](C)CO)C(=O)c2cc(NC(=O)Nc3ccc(F)cc3)ccc2O[C@H]1CN(C)C(=O)Nc1ccc(F)cc1	i	i	i	i
COCCOC(=O)N1C(=O)[C@@]2(c3cc(C#CC4(O)CCCCCC4)ccc31)[C@H](c1ccc(O)cc1)N1[C@H](c3ccccc3)[C@H](c3ccccc3)OC(=O)[C@H]1[C@@H]2C(N)=O	i	i	i	i
C[C@@H]1CN([C@H](C)CO)C(=O)c2cc(NC(=O)Nc3ccc(F)cc3)ccc2O[C@H]1CN(C)C(=O)Nc1ccc(F)cc1	i	i	i	i
CC(C)(C)[C@@H]1C=C(C(=O)NCc2ccccc2)O[C@H](OCc2ccc(CO)cc2)C1	i	i	i	i
Cc1noc(C)c1NC(=O)N(C)C[C@H]1Oc2c(NC(=O)c3ccncc3)cccc2C(=O)N([C@@H](C)CO)C[C@H]1C	i	i	i	i
COC(=O)c1c(NC(=O)CSc2nnc3ccccn23)sc(C)c1C	+	i	i	i
C[C@H](CO)N1C[C@H](C)[C@@H](CN(C)Cc2ccc(C(=O)O)cc2)OCCCC[C@H](C)Oc2ccc(NC(=O)Nc3ccc(F)cc3)cc2C1=O	i	i	i	i
CNC[C@@H]1Oc2ccc(NC(=O)CCC(F)(F)F)cc2C(=O)N([C@@H](C)CO)C[C@H]1C	i	i	i	i
CCC1(c2ncc[nH]2)Cc2ccccc2O1 (configuration not stated)	i	i	i	i
Clc1ccc(C(Cn2ccnc2)OCc2c(Cl)cccc2Cl)c(Cl)c1 (configuration not stated)	i	i	i	i
C[C@H](CO)N1C[C@H](C)[C@H](CN(C)C(=O)Nc2cccc3ccccc23)OCCCC[C@H](C)Oc2ccc(NC(=O)Nc3ccc(F)cc3)cc2C1=O	.	i	i	i
CS(=O)(=O)NCCSCc1ccco1	i	i	i	i
COc1ccc(S(=O)(=O)Nc2cccc3c2O[C@@H](CN(C)Cc2ccc(C(F)(F)F)cc2)[C@H](C)CN([C@@H](C)CO)C3=O)cc1	i	i	i	i
C[C@@H]1CN([C@H](C)CO)C(=O)c2cc(NC(=O)Nc3ccc(F)cc3)ccc2O[C@H]1CN(C)S(=O)(=O)c1cccs1	i	i	i	i
Cc1cc(SCC(N)=O)nc2ccccc12	i	i	i	i
C[C@@H]1CCCCO[C@@H](CN(C)C)[C@H](C)CN([C@H](C)CO)C(=O)c2cc(NS(=O)(=O)c3cccs3)ccc2O1	i	i	i	i
C[C@@H]1CN([C@H](C)CO)C(=O)Cc2cc(NC(=O)Nc3cccc4ccccc34)ccc2O[C@@H]1CN(C)C(=O)Nc1ccc(F)cc1	.	i	i	i
CC(=O)O[C@]1(C(C)=O)CC[C@H]2[C@@H]3C=C(C)C4=CC(=O)CC[C@@H]4[C@H]3CC[C@@]21C	i	i	i	i
COc1ccc(OC)c(NC(=O)Cn2cc(C(=O)c3cccs3)c3ccccc32)c1	i	i	i	i
C[C@H](CO)N1C[C@H](C)[C@H](CN(C)Cc2ccc(C(=O)O)cc2)Oc2ccc(NC(=O)Cc3ccccc3)cc2CC1=O	i	i	i	i
C[C@H](CO)N1C[C@H](C)[C@@H](CN(C)C(=O)Nc2cccc3ccccc23)Oc2c(NC(=O)c3nc4ccccc4s3)cccc2C1=O	i	i	i	i
CCCn1cnc2cc(NCc3ccccn3)ccc21	i	i	i	i
C[C@H](CO)N1C[C@H](C)[C@H](CN(C)CC2CC2)Oc2ccc(NC(=O)Nc3ccc4c(c3)OCO4)cc2CC1=O	i	i	i	i
C[C@@H]1CCCCO[C@H](CN(C)C)[C@H](C)CN([C@@H](C)CO)C(=O)c2cc(NC(=O)Nc3ccc(F)cc3)ccc2O1	i	i	i	i
C[C@@H]1CN([C@@H](C)CO)C(=O)c2cc(NS(=O)(=O)c3cn(C)cn3)ccc2O[C@@H](C)CCCCO[C@@H]1CN(C)S(=O)(=O)c1cn(C)cn1	i	i	i	i
Cc1cc(C(=O)Nc2cccc3c2O[C@@H](CN(C)C(=O)Nc2ccccc2)[C@@H](C)CN([C@@H](C)CO)C3=O)n(C)n1	i	i	i	i
C[C@@H]1O[C@@H](O[C@H]2CC[C@@]3(C)C(CC[C@]4(C)C3CC=C3C5CC(C)(C)CC[C@]5(C(=O)O[C@@H]5O[C@H](CO)[C@@H](O)[C@H](O)[C@H]5O)CC[C@]34C(=O)O)C2(C)C)[C@H](O)[C@H](O)[C@H]1O (some centres not stated)	i	i	i	i
CC1(C)CC(=O)C2=C(C1)Nc1ccccc1N(C(=O)Cc1ccccc1)C2c1ccc(-c2ccccc2[N+](=O)[O-])o1 (configuration not stated)	i	i	i	i
CNC[C@H]1OCCCC[C@@H](C)Oc2ccc(N)cc2C(=O)N([C@@H](C)CO)C[C@H]1C	i	i	i	i
Cc1ccc(S(=O)(=O)N2CCCC(C(=O)Nc3ccc4c(c3)OCCO4)C2)cc1 (configuration not stated)	i	i	i	i
O=S1(=O)NC(=NCCCCO)c2ccccc21	i	i	i	i
CC(C)(C)OC(=O)NCCOCCOCCNc1ncnc2ccccc12	i	i	i	i
O=C(CSc1nnc(-c2ccncc2)o1)c1ccc2ccccc2c1	i	i	i	i
C[C@@H]1CN([C@H](C)CO)C(=O)Cc2cc(NC(=O)Nc3ccc4c(c3)OCO4)ccc2O[C@H]1CN(C)C(=O)Nc1ccccc1	.	i	i	i
O=C(/C=C/c1ccccc1)CC(=O)/C=C/c1ccccc1	.	i	i	i

Continued, starting with the last seven of the part before.
SMILES	ID4 binder	c-Myc SMM	STAT3 binder	p53 mut binder
CNC[C@H]1OCCCC[C@@H](C)Oc2ccc(N)cc2C(=O)N([C@@H](C)CO)C[C@H]1C	i	i	i	i
Cc1ccc(S(=O)(=O)N2CCCC(C(=O)Nc3ccc4c(c3)OCCO4)C2)cc1 (configuration not stated)	i	i	i	i
O=S1(=O)NC(=NCCCCO)c2ccccc21	i	i	i	i
CC(C)(C)OC(=O)NCCOCCOCCNc1ncnc2ccccc12	i	i	i	i
O=C(CSc1nnc(-c2ccncc2)o1)c1ccc2ccccc2c1	i	i	i	i
C[C@@H]1CN([C@H](C)CO)C(=O)Cc2cc(NC(=O)Nc3ccc4c(c3)OCO4)ccc2O[C@H]1CN(C)C(=O)Nc1ccccc1	.	i	i	i
O=C(/C=C/c1ccccc1)CC(=O)/C=C/c1ccccc1	.	i	i	i
C[C@H](CO)N1C[C@H](C)[C@H](CN(C)Cc2ccncc2)Oc2ccc(NC(=O)Nc3ccc(F)cc3)cc2C1=O	i	i	i	i
C[C@@H](CN1CCC(Cc2ccccc2)CC1)[C@@H](O)c1ccc(O)cc1	i	i	i	i
Cc1ccc(S(=O)(=O)N(C)C[C@H]2OCCCC[C@@H](C)Oc3ccc(NC(=O)Nc4ccccc4)cc3C(=O)N([C@H](C)CO)C[C@H]2C)cc1	.	i	i	i
C[C@@H]1CN([C@@H](C)CO)C(=O)Cc2cc(NC(=O)CCN3CCOCC3)ccc2O[C@@H]1CN(C)S(=O)(=O)c1cn(C)cn1	i	i	i	i
CC(=O)Nc1cccc(NC(=S)NCc2ccco2)c1	i	i	i	i
C[C@@H]1CN([C@@H](C)CO)C(=O)c2cccc(NC(=O)NC3CCCCC3)c2O[C@@H]1CN(C)Cc1ccc(Cl)c(Cl)c1	.	i	i	i
Cc1ccc(S(=O)(=O)N2CCN(Cc3ccc(OCCO)cc3)CC2)cc1	i	i	i	i
C[C@@H]1CN([C@@H](C)CO)C(=O)c2cc(NS(=O)(=O)c3cccs3)ccc2O[C@@H]1CN(C)Cc1ccc(-c2ccccc2)cc1	i	i	i	i
COc1ccc(CN(C)C[C@@H]2Oc3ccc(NC(=O)Nc4ccc(OC)cc4)cc3CC(=O)N([C@@H](C)CO)C[C@@H]2C)cc1	i	i	i	i
C[C@@H]1CN([C@@H](C)CO)C(=O)Cc2cc(NC(=O)NC3CCCCC3)ccc2O[C@H]1CN(C)Cc1ccncc1	i	i	i	i
C[C@H]1CN([C@@H](C)CO)C(=O)CCCn2cc(nn2)CO[C@H]1CN(C)Cc1ccc(Cl)c(Cl)c1	i	i	i	i
COc1ccc(S(=O)(=O)Nc2ccc3c(c2)C(=O)N([C@@H](C)CO)C[C@@H](C)[C@@H](CN(C)CC2CCCCC2)OCCCC[C@H](C)O3)cc1	.	i	i	i
Cc1noc(C)c1NC(=O)Nc1cccc2c1O[C@H](CN(C)Cc1ccc(C(F)(F)F)cc1)[C@@H](C)CN([C@H](C)CO)C2=O	i	i	i	i
C=C(C)C1CCC2(C(=O)O)CCC3(C)C(CCC4C5(C)C(C=O)C(O)C(C)(CO)C5CCC43C)C12 (configuration not stated)	.	i	i	i
Cc1noc(C)c1NC(=O)Nc1ccc2c(c1)CC(=O)N([C@H](C)CO)C[C@@H](C)[C@H](CN(C)S(=O)(=O)c1ccccc1)O2	i	i	i	i
Cc1cc(NC(=O)c2cc3nc(-c4cccs4)cc(C(F)(F)Cl)n3n2)n(-c2ccccc2)n1	i	i	i	i

Screening results as filed in PubChem.
